High-throughput results as filed in PubChem BioAssay.
RGS16-Gao: regulators of human RGS16-Galphao interaction. O15492+P09471. bead-based flow cytometry RGS16-Galphao binding, fluorescence; actives lie on both sides. binding response (% of control), % at 10 µM. 220,000 compounds, 0.38% hits;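 active = below 25% or above 175%, edge rows of some plates excepted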;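 also: Galphao activated by GDP with aluminum fluoride before binding; 100% = wells without compound and 0% = beads without RGS; some results beyond the cut were filed as inactive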
Target sequence (O15492 whole entry, looked up): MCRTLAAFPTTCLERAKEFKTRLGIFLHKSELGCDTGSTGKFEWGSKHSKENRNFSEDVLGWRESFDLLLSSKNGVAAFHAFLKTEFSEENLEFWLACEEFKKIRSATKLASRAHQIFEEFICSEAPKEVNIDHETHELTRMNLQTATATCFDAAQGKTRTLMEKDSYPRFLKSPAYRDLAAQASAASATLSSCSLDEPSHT
Target sequence (P09471 whole entry, looked up): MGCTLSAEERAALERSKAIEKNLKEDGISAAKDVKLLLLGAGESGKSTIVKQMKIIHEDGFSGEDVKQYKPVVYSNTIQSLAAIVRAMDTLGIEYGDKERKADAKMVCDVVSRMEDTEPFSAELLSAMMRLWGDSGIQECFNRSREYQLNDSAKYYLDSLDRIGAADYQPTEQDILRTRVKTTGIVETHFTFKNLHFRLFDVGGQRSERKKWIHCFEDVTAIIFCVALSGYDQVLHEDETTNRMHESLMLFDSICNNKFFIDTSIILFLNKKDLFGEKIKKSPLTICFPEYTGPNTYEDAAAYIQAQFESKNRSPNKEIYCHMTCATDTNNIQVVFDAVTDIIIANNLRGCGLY
Insulin prom inh: TRM-6 insulin promoter activity inhibition. inhibition, % at 2 µM. 130,000 compounds, 0.9% hits. TRM-6 cells (human fetal islet line), insulin promoter-eGFP reporter, imaging; reporter expression induced with tamoxifen. AID 1273;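 active = inhibition above the mean plus 3 SD, with well images judged a real hit on visual review, cut at about 60% in these data, passing the limit was not always enough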
HSV replic up: HSV replication enhancement; maximum fold increase; HSV replication augmentation in cells, fold increase; 220,000 compounds, 0.005% hits;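 active = peak rise of 1.5-fold or more in the series; tested in PC3 cells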;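 also: first round at 10 µM; read as green reporter fluorescence; hits show the peak of a series up to 25 µM; 1 = signal of infected wells without compound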
PKD1 kinase inh: inhibitors of human PKD1 kinase; inhibition, %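 (about 10 µM by stock and volumes)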; 200,000 compounds, 0.056% hits; PKD1 kinase fluorescence polarization assay;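 active = inhibition of 50% or more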;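 also: controls were vehicle for no effect and a reference inhibitor for full effect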
GALR2 ag: activates the human galanin receptor 2. O43603. 140,000 compounds, 0.48% hits. GALR2-expressing cells, agonist activation read-out. activation, %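 (tested at 5 µM)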;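 active = above mean plus 3 SD of all compounds, about 5% in these data, not always enough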;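 also: 0% = vehicle buffer wells and 100% = reference agonist at full effect; tested in CHO reporter cells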
Target sequence (O43603 whole entry, looked up): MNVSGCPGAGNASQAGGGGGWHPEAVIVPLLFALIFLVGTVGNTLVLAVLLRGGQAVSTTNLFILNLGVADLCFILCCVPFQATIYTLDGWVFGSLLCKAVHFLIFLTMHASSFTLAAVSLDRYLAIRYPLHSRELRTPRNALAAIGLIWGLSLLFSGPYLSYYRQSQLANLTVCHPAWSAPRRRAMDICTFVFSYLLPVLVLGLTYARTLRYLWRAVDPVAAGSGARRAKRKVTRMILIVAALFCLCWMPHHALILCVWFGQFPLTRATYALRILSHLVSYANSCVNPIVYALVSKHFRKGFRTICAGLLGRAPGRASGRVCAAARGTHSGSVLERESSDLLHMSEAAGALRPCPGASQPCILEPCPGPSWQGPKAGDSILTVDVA
Insulin prom inh cell count: also measured in Insulin prom inh; calls as there; normalized cell count, %; measured here: cell count, toxicity; reference of the scale not given here;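 cells exposed to compound for 48 h; stained nuclei by imaging scaled within each plate; lower means fewer cells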
HSV replic up primary fold: also measured in HSV replic up; calls as there; fold increase; compound at 10 µM; measured here: primary screen fold increase 10 uM; tested in PC3 cells;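 GFP signal in the first replicate; 1 = infected wells without compound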
* = called active by the depositor; i = inactive; / = not tested or not shown. Hits appear at their usual frequency; 1.3% or so of the library scored in one or more.

Results follow in this order: RGS16-Gao, Insulin prom inh, Insulin prom inh cell count, HSV replic up, HSV replic up primary fold, PKD1 kinase inh, GALR2 ag
> CC(=O)Nc1ccc(OC(F)(F)C(F)F)c(NC(C)=O)c1
    105, -3, 82, i, 1, 1, -1.9
> Cc1cnc(C(=O)Nc2nnc(SCc3c(Cl)cccc3Cl)s2)cn1
    97, 33, 95, i, 0.93, -3, -1.4
> CCOCc1nnc(NC(=O)c2cc(OC)cc(OC)c2)s1
    100, 33, 104, i, 0.92, -1, /
> CCOC(=O)C1CCCN(CC(=O)NC2CC2)C1 (configuration not stated)
    205, /, /, i, 1.4, /, /
> Cc1nc2c(C#N)cnn2c2c1CCN2CC1CCCO1 (configuration not stated)
    104, /, /, i, 0.99, -10, /
> O=C(CSc1ncccn1)NCc1cccc(Cl)c1
    108, 17, 77, i, 1, 8, /
> COc1cccc(=O)c2c(C)oc(C)c12
    122, 24, 124, i, 1.1, 1, -1.7
> O=C(Oc1c(CN2CCOCC2)cc(Cl)c2cccnc12)c1ccccc1
    99, -9, 120, i, 0.75, 0, /
> Cc1ccc2nc3sc(C(=O)Nc4ccc(N5CCOCC5)cc4)c(N)c3cc2c1
    5, 25, 141, /, /, 13, -2.7
> O=C(CP(=O)(c1ccccc1)c1ccccc1)N1CCOCC1
    98, 63, 107, i, 0.96, 9, /

New compounds follow:
Results follow in this order: RGS16-Gao, Insulin prom inh, Insulin prom inh cell count, HSV replic up, HSV replic up primary fold, PKD1 kinase inh, GALR2 ag
> Cc1cc(C)c2nc(N)sc2c1
    100, 23, 183, i, 0.84, -7, 0.3
> O=C(COc1ccc(Cl)cc1)NCc1ccncc1
    98, /, /, i, 1, -8, /
> Cc1cc2cc(CCNC(=O)C(=O)c3c[nH]c4ccccc34)c(=O)[nH]c2cc1C
    112, 0, 30, i, 0.77, -1, /
> COC(=O)CN(c1ccccc1[N+](=O)[O-])S(=O)(=O)c1ccccc1
    119, /, /, i, 1.1, -6, /
> CCOc1cccc(C(=O)N(Cc2ccco2)C2CCS(=O)(=O)C2)c1 (configuration not stated)
    95, -15, 85, i, 0.93, -5, -0.9
> CNCc1ccccc1Sc1cccc(O)c1
    107, -3, 103, i, 1.1, -15, -0.5
> COc1ccc(/C=N/N2C(=O)CN(C(=O)c3ccccc3)C2c2ccc(OC)cc2)cc1 (configuration not stated)
    93, /, /, i, 0.88, /, /
> CCOC(=O)Cc1csc2nc3sc(C)c(C)c3c(=O)n12
    100, 38, 132, i, 0.97, -8, -2.2
> Cc1cc(-c2cc(-c3ccc(Cl)cc3)on2)nc(NC2CCCC2)n1
    99, /, /, i, 1.1, /, /
> CCOc1ccc(NC(=O)C23CC4CC(C2)CC(c2ccccc2)(C4)C3)cc1
    100, -79, 106, i, 1.2, -9, -2.6

Continued; it opens with the seven that closed the last part.
Results follow in this order: RGS16-Gao, Insulin prom inh, Insulin prom inh cell count, HSV replic up, HSV replic up primary fold, PKD1 kinase inh, GALR2 ag
> COC(=O)CN(c1ccccc1[N+](=O)[O-])S(=O)(=O)c1ccccc1
    119, /, /, i, 1.1, -6, /
> CCOc1cccc(C(=O)N(Cc2ccco2)C2CCS(=O)(=O)C2)c1 (configuration not stated)
    95, -15, 85, i, 0.93, -5, -0.9
> CNCc1ccccc1Sc1cccc(O)c1
    107, -3, 103, i, 1.1, -15, -0.5
> COc1ccc(/C=N/N2C(=O)CN(C(=O)c3ccccc3)C2c2ccc(OC)cc2)cc1 (configuration not stated)
    93, /, /, i, 0.88, /, /
> CCOC(=O)Cc1csc2nc3sc(C)c(C)c3c(=O)n12
    100, 38, 132, i, 0.97, -8, -2.2
> Cc1cc(-c2cc(-c3ccc(Cl)cc3)on2)nc(NC2CCCC2)n1
    99, /, /, i, 1.1, /, /
> CCOc1ccc(NC(=O)C23CC4CC(C2)CC(c2ccccc2)(C4)C3)cc1
    100, -79, 106, i, 1.2, -9, -2.6
> C=C(C)C1CC=C(C)/C(=N/NC(=O)CNc2ccc(C)cc2C)C1 (configuration not stated)
    103, 0, 84, i, 0.92, -1, -2.2
> CC(=O)Nc1ccc(Nc2nc(C)c([N+](=O)[O-])c(Nc3ccccc3)n2)cc1
    106, -10, 114, i, 0.74, -4, 1.9
> COc1ccc(S(=O)(=O)N2CCC[C@H]2C(=O)NC2=NCCS2)cc1
    105, -14, 87, i, 1, 1, -0.7
> O=C(Nc1cc(Sc2ccccn2)cc([N+](=O)[O-])c1)c1ccc([N+](=O)[O-])cc1
    102, 29, 93, /, /, 3, -1.4
> CCC(NS(=O)(=O)c1ccc(C)cc1)C(=O)O (configuration not stated)
    108, /, /, i, 0.82, -5, -0.3
> Cc1sc(N)nc1-c1ccccc1
    102, -60, 102, i, 0.99, -2, /
> O=C(COc1cccnc1[N+](=O)[O-])Nc1ccc2c(c1)OCO2
    94, /, /, i, 0.99, -3, /
> CN(CCNC(=O)c1cn(C)c2ccc(S(=O)(=O)N(C)C)cc2c1=O)CCc1ccccc1
    103, /, /, i, 0.89, -2, -1.2
> COc1cccc(C(=O)Nn2cnnc2)c1
    103, /, /, i, 0.93, 8, /
> CCOc1ccc(OCC(=O)NCCc2nc3ccccc3[nH]2)cc1
    100, -24, 113, i, 0.82, -8, -0.7

Next structures follow.
Results follow in this order: RGS16-Gao, Insulin prom inh, Insulin prom inh cell count, HSV replic up, HSV replic up primary fold, PKD1 kinase inh, GALR2 ag
> Cc1ccc(-n2[nH]c(C)c(C=Nc3ccc(Br)cn3)c2=O)cc1
    97, -119, 94, i, 0.84, 0, /
> CCC(C)NC(=O)C1CCC(=O)N(c2ccc3c(c2)OCO3)C1c1ccc(OC)cc1 (configuration not stated)
    103, /, /, i, 0.84, -13, -2.2
> CC(C)c1ccc(OCC(=O)NNC(=O)c2cnccn2)cc1
    99, /, /, i, 0.95, /, /
> CCCCCCC(=O)Nc1nnc(CC)s1
    160, 69, 114, i, 0.7, -13, -2.2
> N#Cc1ccc(OCC(O)CS(=O)(=O)c2ccc(F)cc2)cc1 (configuration not stated)
    104, -13, 112, i, 1, 13, /
> NC(=O)c1c(NC(=O)CN2CCOCC2)sc2c1CCC2
    98, 45, 150, i, 0.96, 2, -3.0
> C=CCNC(=O)c1ccc(Cn2cc(C(F)(F)F)ccc2=O)cc1
    99, /, /, i, 0.94, -7, /
> COc1ccccc1CNC(=O)c1cc2c(C)nn(Cc3ccc(F)cc3)c2s1
    106, -12, 68, i, 0.83, 2, -5.0
> COc1ccccc1C(=O)n1nc(C)cc1C
    101, -35, 112, i, 1, -15, -3.2
> O=C(N/C(=C\c1cn(-c2ccccc2)nc1-c1ccccc1)C(=O)N1CCOCC1)c1ccccc1
    103, /, /, i, 0.95, -1, -1.7

Next section.
Results follow in this order: RGS16-Gao, Insulin prom inh, Insulin prom inh cell count, HSV replic up, HSV replic up primary fold, PKD1 kinase inh, GALR2 ag
> O=C(/C=C/c1ccc2c(c1)OCO2)c1ccc(F)cc1
    94, 15, 121, i, 1.6, -8, -2.2
> Oc1oc(-c2cccc3ccccc23)nc1/C=N/c1nccs1
    97, -6, 55, i, 1.1, -3, 3.3
> Cc1ccc(C(=O)c2no[n+]([O-])c2C(=O)c2ccc(C)cc2)cc1
    111, -456, 1, i, 0.94, -10, -1.7
> COc1ccc(Cn2nnnc2C(c2cccnc2)N2CCN(c3ccc(O)cc3)CC2)cc1 (configuration not stated)
    105, -28, 221, i, 1, -4, -0.7
> O=C(C1CCCN(S(=O)(=O)c2cccnc2)C1)N1CCN(c2ccccn2)CC1 (configuration not stated)
    99, /, /, i, 0.96, -9, -1.3
> Cc1c(C(=O)Nc2ccc(S(=O)(=O)NCC3CCCO3)cc2)cccc1[N+](=O)[O-] (configuration not stated)
    103, /, /, i, 1, -7, /
> COc1ccc(CC(=O)N/N=C/c2ccc(-c3ccc(F)cc3)o2)cc1OC
    103, /, /, i, 0.9, /, /
> CSCCC(NC(=O)c1ccc(C)o1)C(=O)O (configuration not stated)
    105, /, /, i, 1, 0, -0.6
> CS(=O)(=O)N(Cc1ccc(Cl)cc1)c1ccc(C(=O)NCC2CCCO2)cc1 (configuration not stated)
    97, 40, 91, i, 0.92, 3, /
> COc1ccc2c(c1)C1=NN(/C(C)=C/C(C)=O)C(c3ccc(F)cc3)C1CC2 (configuration not stated)
    40, 5, 85, i, 0.94, 0, -0.1

The list continues.
Results follow in this order: RGS16-Gao, Insulin prom inh, Insulin prom inh cell count, HSV replic up, HSV replic up primary fold, PKD1 kinase inh, GALR2 ag
> NC(=O)C1CCN(C(=O)c2ccco2)CC1
    46, 5, 91, i, 1.1, -6, -1.2
> Cc1[nH]c(=S)n(CC2CCCO2)c1C (configuration not stated)
    132, 0, 65, i, 0.78, -3, -1.0
> O=S(=O)(c1ccc2c(c1)nc(COc1ccc(Cl)cc1)n2CC1CCCO1)N1CCOCC1 (configuration not stated)
    99, /, /, i, 0.86, 3, -1.5
> CCOC(=O)CN1C(=O)CCSc2ccc(Cl)cc21
    106, /, /, i, 0.95, -4, /
> COC(=O)c1c(C)oc(C)c1S(=O)(=O)NCc1ccc(Cl)cc1Cl
    99, /, /, i, 0.99, /, /
> O=S(=O)(NCc1ccccn1)c1ccc(Cl)c(C(F)(F)F)c1
    104, /, /, i, 1.1, -16, /
> COc1ccccc1NC(=O)Cn1nc(Cc2cccnc2)c2ccccc2c1=O
    100, /, /, i, 0.99, /, /
> Cc1noc(C)c1C(=O)Nc1ccc(F)cc1
    104, 7, 66, i, 0.87, -2, /
> CC(=O)Nc1ccc(NC(=O)C(C)O/N=C/c2cccc([N+](=O)[O-])c2)cc1 (configuration not stated)
    100, 8, 215, i, 0.78, -9, -1.5
> Cc1ccc2nc(SC(C)C(=O)NCc3ccc4c(c3)OCO4)[nH]c2c1 (configuration not stated)
    98, /, /, i, 1.1, -3, 0.3

Following part:
Results follow in this order: RGS16-Gao, Insulin prom inh, Insulin prom inh cell count, HSV replic up, HSV replic up primary fold, PKD1 kinase inh, GALR2 ag
> Cc1cc(C(=O)O)c(CSCc2cc(C(=O)O)oc2C)o1
    109, -3, 85, i, 1.1, -1, -2.8
> Cc1cccc(NC(=O)C2SC(=Nc3c(C)cccc3C)C(C(=O)N3CCOCC3)=C2N)c1 (configuration not stated)
    108, /, /, i, 1, -8, -1.0
> Cn1cc(/C=C2/SC(=O)N(c3ccccc3)C2=O)c2ccccc21
    109, /, /, /, /, -7, -1.1
> CC(C)Cn1nc(NS(=O)(=O)c2ccccc2)c2cc3ccccc3nc21
    101, 8, 162, i, 0.9, 8, -0.1
> O=C(Nc1cccc2c1[nH]c1ccccc12)C(F)(F)F
    42, 25, 82, i, 0.89, 1, -2.3
> O=C(Nc1cccc(C(=O)O)c1)/C(=C\c1ccc2c(c1)OCO2)NC(=O)c1ccc(Br)cc1
    100, /, /, i, 0.91, -11, /
> Cc1ccc(SCC(=O)NC(=O)NC(C)C)c(C)c1
    109, /, /, i, 0.97, 1, /
> CCCNS(=O)(=O)c1ccc(OCC(=O)NCCCOC)cc1
    103, -252, 82, i, 0.92, -13, -0.8
> O=C(NCCc1ccccc1)C1CCC(CNS(=O)(=O)c2cccc3cccnc23)CC1 (configuration not stated)
    97, /, /, i, 0.94, /, /
> CCC(=O)N1CCN(c2ccc(NC(=O)c3ccc4c(c3)OCO4)cc2)CC1
    122, 27, 106, i, 0.82, -9, -0.6

Additional compounds.
Results follow in this order: RGS16-Gao, Insulin prom inh, Insulin prom inh cell count, HSV replic up, HSV replic up primary fold, PKD1 kinase inh, GALR2 ag
> CCOC(=O)C1CCCN(Cc2c(C(=O)N3CCCCC3)nc3c(C)cccn23)C1 (configuration not stated)
    104, /, /, i, 1.1, 6, /
> COc1cc2ccccc2cc1C(=O)Nc1cccnc1
    116, 13, 150, i, 0.99, -4, -2.1
> COc1ccc(NCc2nnc(SCC(=O)NCc3ccccc3)n2-c2ccccc2OC)cc1
    103, -72, 81, i, 0.95, -5, -1.0
> Cc1cc(N2CCC(C)CC2)nc(-c2ccccc2O)n1
    99, /, /, i, 0.96, /, /
> CC(C)c1onc(C(=O)N2CCN(Cc3ccccc3)CC2)c1[N+](=O)[O-]
    100, -40, 68, i, 0.76, -2, -0.3
> N#C/C(=C\c1ccccc1[N+](=O)[O-])C(=O)NC1CCCCC1
    52, 50, 55, /, /, 1, /
> COC(=O)c1ccc(NC(=O)CSCc2ccc(C)cc2)cc1
    113, -3, 159, i, 0.93, 4, -0.6
> Cn1c(NCc2cccnc2)nc2c1c(=O)n(Cc1ccccc1F)c(=O)n2C
    66, -278, 70, i, 0.84, -5, -0.3
> Cc1cc(C(=O)COc2ccc(-c3nnco3)cc2)c(C)n1Cc1ccccc1
    105, -37, 70, i, 0.76, -11, -2.6
> COc1ccc(/C=N\N=C2/SC(CC(=O)O)C(=O)N2c2ccc(O)cc2)cc1OC (configuration not stated)
    93, -65, 132, i, 0.98, -12, -1.2
> c1ccc(Cn2nnnc2C(c2cccs2)N2CCSCC2)cc1 (configuration not stated)
    106, -19, 55, i, 0.95, 2, -2.6
